Source: PubChem BioAssay (ICCB-Longwood Screening Facility, Harvard Medical School)
CapD inh: inhibitors of Bacillus anthracis CapD enzyme. AID 492967. z-score (no concentration beside the values). actives 0.23% (n = 140,000). purified CapD enzyme, fluorescence intensity read-out; hits give low values; some hits fall short of the stated cut;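 active = z-score under -4 in either of two replicates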;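 note: stock transfer was 100 nL into about 40 µL; score is relative to mean and spread of the plate; one replicate is shown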
AID504770: growth inhibitors of E. coli YBA685 in a screen for V. cholerae RctB (chromosome II replication) inhibitors | z-score (no concentration beside the values) | actives 0.27% (n = 130,000) | E. coli YBA685 rctB-dependent plasmid, OD600 growth, 3 h; hits give low values;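 active = z-score under -2 on both plates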;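 note: wells of about 30 µL received 100 nL stock; score is relative to mean and SD of the test wells; the first replicate is given; strong numbers were not always called active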
* marks the source's active call; other numbers are inactive results; i = inactive; x = no result given.

| Molecule | CapD inh | AID504770 |
| --- | --- | --- |
| O=C(/C=C/c1ccc(F)cc1Cl)NNC(=O)OCC12CC3CC(CC(C3)C1)C2 | 28 | x |
| CCOc1cccc(/C=N/NC(=O)C(CCSC)NC(=O)c2ccc(C(F)(F)F)cc2)c1O (configuration not stated) | 1.9 | x |
| O=C(Nc1ccc(F)cc1)c1ccc2ccccc2c1 | 0.55 | 0.1 |
| Cc1cccc(-n2nc3c(c2NC(=O)c2ccc(S(=O)(=O)N(C)C)cc2)CS(=O)(=O)C3)c1C | 0.18 | x |
| CCCNc1nc(NCC)nc(OC)n1 | x | -1.3 |
| COc1ccc(CNC(=O)C(NS(=O)(=O)c2ccc3nc(C)sc3c2)C(C)C)cc1 (configuration not stated) | 0.34 | 0 |
| CN(C)CC1(c2ccccc2)CCCC1 | x | -0.25 |
| Cc1ccc(CS(=O)c2ccccc2-c2nnc(-c3ccccc3)o2)cc1 (configuration not stated) | -0.17 | x |
| O=C(NC(=O)c1ccccc1)OCC1CCCN2CCCCC12 (configuration not stated) | 0.53 | 1.6 |
| COc1ccc(NC(=O)C(c2ccc(OC)cc2)N(C)C(=O)Cc2c[nH]c3ccccc23)cc1 (configuration not stated) | -0.4 | x |
| Cc1ccc(C(C)C)cc1Oc1cc(Cl)nc(N)n1 | i | -0.55 |
| Cc1cc(NC(=O)CSc2nc3cc(C(=O)NCC4CCCO4)ccc3c(=O)n2CC2CCCO2)no1 (configuration not stated) | 0.4 | x |
| CN1C(=O)C(=Cc2ccc(OCc3ccccc3)cc2)C(=O)N(C)C1=O | 0.76 | x |
| CCOc1ccccc1-n1nnnc1SCC(=O)c1ccc(CNC(C)=O)o1 | x | 0 |
| COc1cc(OC)c(NC(C)C(=O)N(C)C2CCCCC2)cc1Cl (configuration not stated) | x | 0.2 |
| CCOC(=O)C1Cc2ccccc2CN1 (configuration not stated) | x | 0.15 |
| CC(C)(C)NC(=O)/C=C/c1c(Cl)nc2sccn12 | x | 0.8 |
| COc1ccc(C2CC(=O)C3=C(C2)Nc2ccccc2NC3c2cc(Br)c(O)c(OC)c2)cc1OC (configuration not stated) | -1.2 | x |
| COc1cc(C2C(C#N)=C(N)Oc3c2c(=O)oc2ccccc32)cc(OC)c1O (configuration not stated) | 0.4 | x |
| CCOc1cc(C=C2C(=O)NC(=O)NC2=O)ccc1OCc1ccc([N+](=O)[O-])cc1 | 0.44 | x |
| CCc1cc(C)cc(OCCn2cc(C=C3C(=O)NC(=O)NC3=O)c3ccccc32)c1 | -0.95 | 0.45 |
| COC(=O)c1ccc(COC(=O)c2cc(C)oc2C)cc1 | x | -1.8 |
| COc1ccc(/C(C#N)=C/c2ccc3c(c2)OCO3)cc1 | 1.6 | 0.3 |
| COc1cccc(C(=O)C2CC2c2ccc(Cl)cc2)c1 (configuration not stated) | -0.32 | 0.85 |
| NC(=O)C1CCN(CC(=O)Nc2ccccc2)CC1 | x | -0.85 |
| O=C1N=C(SCC(=O)N2CCCCC2)NC(=O)C1Cc1ccccc1 (configuration not stated) | -0.3 | x |
| COC(=O)C(NC(=O)c1cn(-c2ccccc2)nc1-c1ccc(Cl)cc1)C(C)C (configuration not stated) | -0.48 | 0.1 |
| Cc1cc(N=Cc2cccnc2)no1 | 0.05 | 0.1 |
| CCOC(=O)c1ccc(N=C2SC(C(=O)Nc3ccc(C)c(Cl)c3)CC(=O)N2C)cc1 (configuration not stated) | -0.47 | x |
| CCC(C)NC(=O)c1cc(-c2ccc(F)cc2)no1 (configuration not stated) | 2.1 | -0.25 |
| O=C(CC(c1ccccc1)c1ccccc1)N1CCCc2ccccc21 | -0.05 | x |
| CC(C)(C)c1cc(C(=O)CCN2CCCCC2)cc(C(C)(C)C)c1O | -0.51 | 0.05 |
| CCNC(=O)Cc1c(OC)ccc2cc(Br)ccc12 | 0.06 | -0.3 |
| COC(=O)C1=CN(CC(C)C)C=C(C(=O)OC)C1c1cccc(F)c1 | 90 | 1.2 |
| c1ccc(CN2CCC(Nc3ncnc4ccsc34)CC2)cc1 | 1.2 | -0.1 |
| NS(=O)(=O)c1ccc(Nc2nc(-c3ccccc3)c3cc(Br)ccc3n2)cc1 | -0.15 | x |
| c1ccc(CN2CCCCC2)cc1 | x | 1 |
| CCCn1c2ccccc2c2cnn(CC(=O)NCc3cccnc3)c(=O)c21 | 70 | -0.95 |
| CSc1nc(-c2ccc(Cl)cc2)nc(N)c1-c1ccccc1 | 25 | -0.55 |
| CCC(Sc1nc2cc(C(=O)NCCOC)ccc2c(=O)n1Cc1ccco1)C(=O)NCc1cccnc1 (configuration not stated) | 0.68 | x |

3 entries picked at random from the list so far:
| Molecule | CapD inh | AID504770 |
| --- | --- | --- |
| NC(=O)C1CCN(CC(=O)Nc2ccccc2)CC1 | x | -0.85 |
| CC(C)(C)c1cc(C(=O)CCN2CCCCC2)cc(C(C)(C)C)c1O | -0.51 | 0.05 |
| O=C1N=C(SCC(=O)N2CCCCC2)NC(=O)C1Cc1ccccc1 (configuration not stated) | -0.3 | x |

(more compounds)
| Molecule | CapD inh | AID504770 |
| --- | --- | --- |
| O=C(O)c1cc2c3c(c1)C1C=CCC1C(c1ccccc1)N3CC1CC=CC21 (configuration not stated) | 2.1 | x |
| Oc1c(C(c2ccncc2)N2CCCC2)ccc2cccnc12 (configuration not stated) | -0.11 | 1.5 |
| N#CCN1CCCC(C(N)=O)C1 (configuration not stated) | -0.48 | -0.9 |
| CSc1nn(-c2ccccc2)cc1C(=O)Sc1ccccn1 | -0.11 | 1.6 |
| Cn1c(CC#N)nc2ccccc21 | 0.46 | 0.15 |
| CC1CCC(NC(=O)c2ccccc2C(=O)O)CC1 (configuration not stated) | 0.3 | -0.7 |
| Brc1ccc2[nH]c3c(c2c1)CCCC3NCc1ccccc1 (configuration not stated) | -0.015 | -0.25 |
| Cc1ccc2[nH]cc(CCN)c2c1 | 0.04 | 2.2 |
| O=C1c2ccc(S(=O)(=O)O)cc2-c2nc(-c3ccccc3)nc3ccc(Cl)c1c23 | -1.1 | x |
| O=C(O)Cn1c(SC2CCCCC2)nc2ccccc21 | -0.2 | -1.1 |
| C1CCN(c2nc(N3CCCCC3)nc(N3CCNCC3)n2)CC1 | -0.43 | x |
| CCN1CCN(Cn2nc(-c3c[nH]c4ccccc34)n(CC3CCCO3)c2=S)CC1 (configuration not stated) | x | 0.05 |
| CC(C)(CO)NC(=O)c1sc2ccccc2c1Cl | 7.6 | 0.2 |
| Cc1ccc2c(c1)c(=O)c1ccccc1n2CC(=O)Nc1ccc(F)c(Cl)c1 | 5.4 | x |
| NC(=O)C(Cc1c[nH]c2ccccc12)NC(=O)OCc1cccc(SC(F)(F)F)c1 (configuration not stated) | 0.26 | x |
| Cc1ccc(-n2nc3ccc(NC(=S)NC(=O)c4cc5ccccc5o4)cc3n2)cc1Cl | 0.44 | 0.1 |
| CC(C)c1ccc(C(C)(C)CO)cc1 | 0.12 | 0.3 |
| N#Cc1ccccc1CSc1ncccc1C(=O)O | x | -0.3 |
| O=C1c2ccccc2S(=O)(=O)N1CCCCCN1C(=O)c2ccccc2S1(=O)=O | -0.21 | x |
| COC(=O)c1cccc(N2C(=O)/C(=C\c3cccnc3)SC2=S)c1 | -0.35 | 0.85 |
| Cc1ccccc1NC(=O)C(C)Sc1nnc(-c2ccccc2O)o1 (configuration not stated) | x | -0.15 |
| O=C(CS(=O)(=O)c1ccccc1)Nc1ccccn1 | 1.1 | -0.2 |
| CCCCN1C(=O)c2[nH]nc(-c3ccccc3O)c2C1c1ccccc1 (configuration not stated) | -0.18 | 0.05 |
| CC1(C)CC2CC(C)(CN2C(=O)c2cc(-c3ccccc3O)on2)C1 (configuration not stated) | -0.35 | -0.6 |
| COc1ccc(N2C(=O)c3ccccc3NC2c2ccc(OC)c(CSc3ccccn3)c2)cc1 (configuration not stated) | 11 | x |
| COC(=O)CSc1n[nH]c(-c2ccncc2)n1 | 0.02 | x |
| O=C1OCCC1Sc1nc2scc(C3CC3)c2c(=O)n1C1CCCCC1 (configuration not stated) | x | 1.6 |
| O=C1/C(=C/c2ccc(-c3ccc([N+](=O)[O-])cc3)o2)C=C(c2ccccc2)N1c1cccc([N+](=O)[O-])c1 | -0.25 | x |
| CC1=C(C(=O)N2CCCCC2)C2(CCCCC2)OC1=O | -0.35 | -0.7 |
| C=CCN(CC=C)C(=O)CSc1nnc(N)s1 | 0.49 | -0.4 |
| O=c1oc2ccccc2cc1-c1nc(-c2cccs2)cs1 | -0.61 | x |
| CCN1CCN(C(=O)c2cccc(Nc3nc4ccccc4n4nnnc34)c2)CC1 | -0.4 | -0.8 |
| COc1cc2nc(CNc3ccc(C)cc3)[nH]c(=O)c2cc1OC | x | -0.35 |
| CCc1cc(=O)oc2c(C)c(OCC(N)=O)ccc12 | -0.3 | 0.1 |
| CN1/C(=C2/S/C(=N\c3ncn[nH]3)N(Cc3ccccc3)C2=O)Sc2ccccc21 | x | 2.6 |
| O=S(=O)(c1ccc2nnn(OCc3cccc(F)c3)c2c1)N1CCCCC1 | x | -0.5 |
| CCCCn1c(N)c(N(CCOC)C(=O)CN2CCCCCC2)c(=O)[nH]c1=O | x | 1 |
| CN1C=C/C(=C\C=C(/C#N)C(=O)Nc2ccccc2)c2ccccc21 | -0.46 | x |
| COc1cccc2c1OC1=C(C(=O)CCC1)C2C1=C(O)CCCC1=O (configuration not stated) | -0.39 | 0.45 |
| C/C(=N\N)c1cccs1 | x | 0.1 |

Compounds shown so far that contain a CF3 group:
| Molecule | CapD inh | AID504770 |
| --- | --- | --- |
| CCOc1cccc(/C=N/NC(=O)C(CCSC)NC(=O)c2ccc(C(F)(F)F)cc2)c1O (configuration not stated) | 1.9 | x |
| NC(=O)C(Cc1c[nH]c2ccccc12)NC(=O)OCc1cccc(SC(F)(F)F)c1 (configuration not stated) | 0.26 | x |

(further entries)
Each structure is followed by: CapD inh | AID504770
CC(=O)N1c2ccccc2C(=O)C1NC(N)=S (configuration not stated)
 : 0.33 | 0.1
O=C(NC1CCCCCC1)C1CC1
 : -0.005 | -0.2
CC(C)(C)C(=O)NC1CCN(S(=O)(=O)c2ccc(C(F)(F)F)cc2)CC1
 : x | 0.6
Cn1c(=O)c2c(ncn2Cc2cccc(Br)c2)n(C)c1=O
 : -0.38 | x
COc1ccc(-n2nc(C(=O)Nc3cc(C)on3)c3c4ccccc4n(C)c3c2=O)cc1Cl
 : -0.11 | 0.4
CN(C)/C=C(\C=[N+](C)C)c1[nH]ncc1N
 : -1.1 | -0.4
COc1ccc(OC)c(C2C(C(=O)Nc3ccccc3)=C(C)Nc3ncnn32)c1 (configuration not stated)
 : -0.3 | x
CCC(=O)Nc1cccc(NC(C)=O)c1
 : 0.15 | -1
Cc1ncc(S(=O)(=O)C(C)(C)C)c(N)n1
 : -0.12 | x
COc1ccc2c(c1)c(C(=O)O)c(C)n2C
 : -0.08 | 0.2
COc1cccc(-n2c(C)c3c(OC)cccc(=O)c3c2C)c1
 : x | -1.4
CCC(C)NC(=O)c1ccc2c(c1)[nH]c(=S)n1c3ccccc3nc21 (configuration not stated)
 : -0.29 | x
COc1ccc(Nc2nc(N)nc(CN3CCCCC3)n2)cc1
 : 1.2 | -0.8
O=C(NC1CCCC1)c1cc(-c2ccco2)on1
 : 0.68 | -0.7
O=C1CCc2cccc3cccc1c23
 : 51 | x
COc1ccc(N2CCN(C(=O)OCCN3CCN(CCCN4c5ccccc5Sc5ccc(C(F)(F)F)cc54)CC3)CC2C)cc1 (configuration not stated)
 : 0.06 | x
CC(C)(C)c1cc(CN2CCOCC2)c(C(=O)O)o1
 : x | -1.2
CSc1nsc2nc(=O)c(/C=C3\C=CC(=O)C(O)=C3)c(N)n12
 : -4.5* | 1.4
CCN(CC)P(=O)(Nc1ccccc1Br)c1ccc(N(C)C)cc1NC(=O)c1ccco1 (configuration not stated)
 : x | 0.1
CCS(=O)(=O)c1ccccc1C(=O)Nc1nc(-c2ccc3c(c2)OCCO3)cs1
 : x | -0.45
COc1ccccc1NC(=S)NNC(=S)NC1CC2C=CC1C2 (configuration not stated)
 : -0.89 | x
CC1C(c2ccccc2)N(C)C(c2ccccc2)C(C)C1(O)c1ccc(F)cc1 (configuration not stated)
 : -0.91 | x
CC(=O)c1cc(C#N)c(SCCCCSc2nc(C)c(C(C)=O)cc2C#N)nc1C
 : 0.39 | x
O=C1CCc2cc(S(=O)(=O)NC(C(=O)NCc3ccccc3)c3ccccc3)ccc2N1 (configuration not stated)
 : -0.41 | -0.05
O=C(CSc1ncccn1)NC1CCCc2ccccc21 (configuration not stated)
 : x | -0.6
C=CCNc1nc(C(C)C)nc2c1nnn2Cc1ccccc1
 : x | 0.85
CCOc1ccccc1-n1nnnc1SCC(=O)c1cc(Cl)ccc1OC
 : x | -0.4
c1ccc(N(c2ccccc2)c2nc(N3CCCCC3)nc(N3CCOCC3)n2)cc1
 : 1.6 | 0.2
O=C(CSC1=NCCS1)Nc1ccc(Cl)cn1
 : 0.36 | -0.95
Cc1nnc(SCC(=O)c2ccc(O)c(O)c2)s1
 : -2.1 | -1.1
c1ccc(Cc2nn3c(Cn4cnc5ccccc54)nnc3s2)cc1
 : 0.18 | -0.55
COc1ccc(OCCS(=O)(=O)c2nc3ccccc3[nH]2)cc1
 : -0.24 | -0.75
O=[N+]([O-])c1c(Nc2ccccc2Cl)cc(N2CCOCC2)c2nonc12
 : -0.49 | x
CC1=N/C(=C/c2cccnc2)C(=O)O1
 : -0.86 | -0.8

Molecules shown so far that contain a tert-butyl group (five):
Each structure is followed by: CapD inh | AID504770
CC(C)(C)NC(=O)/C=C/c1c(Cl)nc2sccn12
 : x | 0.8
CC(C)(C)c1cc(C(=O)CCN2CCCCC2)cc(C(C)(C)C)c1O
 : -0.51 | 0.05
CC(C)(C)C(=O)NC1CCN(S(=O)(=O)c2ccc(C(F)(F)F)cc2)CC1
 : x | 0.6
Cc1ncc(S(=O)(=O)C(C)(C)C)c(N)n1
 : -0.12 | x
CC(C)(C)c1cc(CN2CCOCC2)c(C(=O)O)o1
 : x | -1.2
